ALR H2O2 inh = inhibitors of human sulfhydryl oxidase ALR | P55789 | purified ALR, DTT oxidation, H2O2 HRP-luminol luminescence | inhibition, % (no concentration beside the values) | 290,000 tested, 3.8% active | AID 485317;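 active means mean and each replicate at 75% or more; inconclusive means only one of the two met; inactive means neither met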;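 further: stock transfer was 7.5 nL into about 7.5 µL; 0% = neutral wells and 100% = wells with inactivated enzyme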
Target sequence (P55789 whole entry, looked up): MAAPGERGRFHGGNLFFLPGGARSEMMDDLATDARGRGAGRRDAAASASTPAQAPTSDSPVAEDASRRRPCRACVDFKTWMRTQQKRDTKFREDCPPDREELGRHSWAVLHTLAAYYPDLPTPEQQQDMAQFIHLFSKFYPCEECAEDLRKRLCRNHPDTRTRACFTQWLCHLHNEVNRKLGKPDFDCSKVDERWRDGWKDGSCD
FGF22 binding = binders of recombinant human FGF22 by thermal shift; Q9HCT0; SYPRO orange fluorescence; percent of sucrose octasulfate shift, DMSO zero; calls only at 9.99 µM; 340,000 tested, 1.5% active; AID 651658;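 active means melting point raised past a set limit in the mean and every replicate; inconclusive means no clear call; three in four hits are not shown here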
Target sequence (Q9HCT0 whole entry, looked up): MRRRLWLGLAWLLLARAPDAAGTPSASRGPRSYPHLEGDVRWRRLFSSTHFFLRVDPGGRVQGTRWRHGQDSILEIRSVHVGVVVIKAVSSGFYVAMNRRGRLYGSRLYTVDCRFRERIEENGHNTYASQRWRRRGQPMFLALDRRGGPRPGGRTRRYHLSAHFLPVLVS
MLL AF4-AF9 inh = blocks AF4 peptide binding to human AF9 | 350,000 tested, 0.47% active | AlphaScreen, biotin-AF4 peptide binding to FLAG-AF9 | AID 651704 | inhibition, % at 10 µM;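 active means every replicate reaching a set inhibition limit, whatever the replicate mean, cut at about 25% in these data; inconclusive means mean inhibition reaches that limit but some replicates miss it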;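 further: 0% = plate neutral control median and 100% = total signal loss; the record names both 10 and 1 µM as test concentration; the first replicate is given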
Target sequence (P42568 whole entry, looked up): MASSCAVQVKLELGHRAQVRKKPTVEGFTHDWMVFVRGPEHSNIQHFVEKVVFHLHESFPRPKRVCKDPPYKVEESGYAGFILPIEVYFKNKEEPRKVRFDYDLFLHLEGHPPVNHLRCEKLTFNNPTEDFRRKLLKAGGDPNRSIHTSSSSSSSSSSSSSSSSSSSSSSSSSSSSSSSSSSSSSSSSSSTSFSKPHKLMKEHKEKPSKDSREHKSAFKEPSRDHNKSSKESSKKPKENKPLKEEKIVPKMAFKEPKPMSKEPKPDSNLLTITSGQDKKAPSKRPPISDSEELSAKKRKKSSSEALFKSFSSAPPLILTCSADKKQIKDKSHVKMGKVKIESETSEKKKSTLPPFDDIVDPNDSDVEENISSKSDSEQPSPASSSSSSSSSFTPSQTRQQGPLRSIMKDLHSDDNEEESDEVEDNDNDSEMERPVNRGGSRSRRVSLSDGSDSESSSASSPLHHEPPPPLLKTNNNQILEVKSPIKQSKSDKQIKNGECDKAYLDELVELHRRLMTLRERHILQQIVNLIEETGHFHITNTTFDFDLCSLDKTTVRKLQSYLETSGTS
T cruzi inh = blocks replication of Trypanosoma cruzi. T. cruzi beta-gal in NIH3T3, luminescence, 90 h. 300,000 tested, 1.4% active. inhibition, % (no concentration beside the values);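 active means mean inhibition across valid replicates above about 55%, limit read from the data; inconclusive means mean below that limit but half or more replicates reach it; inactive means mean below it, under half of replicates reach it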;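 further: signal also drops with host cell toxicity which is not excluded here; 0% = plate median of DMSO wells and 100% = zero luminescence signal; higher percent means less beta-gal luminescence so fewer parasites; stock transfer was 50 nL into about 50 µL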
Beta cell apopt = beta cell apoptosis inhibition. INS-1E cytokine-induced death, ATP luminescence, 48 h; percent of positive-control rescue, neutral wells zero. protection from apoptosis, % (no concentration beside the values). 300,000 tested, 0.8% active;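 active means all replicates at 75% or more, or half of them and the mean; inconclusive means half reach 75% but not the mean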;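 further: 0% = cytokine-treated negative control wells and 100% = positive control rescue; higher means more ATP so stronger rescue from cytokine killing; wells of about 40 µL received 100 nL stock; the first replicate is given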
RanGTP-Imp inh = inhibitors of RanGTP-importin-beta interaction, primary screen, biochemical, FRET, CFP-Ran, YFP-importin-beta, homogeneous; inhibition, % (test concentration not listed); cell-free CFP-Ran/YFP-importin-beta FRET ratio; 300,000 tested, 1.1% active;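 active means most replicates above 15%; inconclusive means exactly half above 15%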;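 further: 0% = DMSO wells and 100% = Ran loaded with GDP instead of GTP; wells of about 40 µL received 100 nL stock; the first replicate is given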
Ecoli rRNA inh = inhibitors of bacterial rRNA selective over humanized ribosomes. E. coli WT GFP vs humanized-ribosome RFP mutants, fluorescence, 24 h; active compounds read low; DMSO median 0, no signal -100. GFP signal change (wild-type ribosome), % (test concentration not listed). 350,000 tested, 1.6% active. AID 720706;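 active means significant combined selectivity score with lowered wild-type GFP, culture density cut under 30%, mutant RFP and density less affected; inactive means any of these conditions unmet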; further: one replicate is shown; some compounds called inactive have numbers as strong as hits
Calb FLC = C. albicans growth modulation with fluconazole. C. albicans CaCi-2 (fluconazole-resistant clinical isolate) + fluconazole, Alamar Blue growth, 48 h. growth inhibition, % (no concentration beside the values). 300,000 tested, 0.57% active. AID 1979;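 active means most replicates above 75%; inconclusive means exactly half above 75%; inactive means most below 75%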;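 further: all wells also contain fluconazole at 8 µg/ml as a sub-toxic cotreatment; 0% = median of DMSO wells and 100% = median of geldanamycin control wells; wells of about 8 µL received 7.5 nL stock; the first replicate is given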
Ecoli rRNA inh OD600 = further read-out of Ecoli rRNA inh, marked with its call; OD600 change, %; measured here: OD600 growth;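 optical density of the mix in the first replicate; 0 = DMSO median and -100 = no signal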
Ecoli rRNA inh RFP = second read-out of Ecoli rRNA inh, no call of its own (marks repeat the call); RFP signal change, %; measured here: RFP humanized mutant strains;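 first replicate; 0 = DMSO median and -100 = no signal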
Starred values were filed as active, the others as inactive; i = inactive; ? = inconclusive; nt = no result given.

compound,ALR H2O2 inh,FGF22 binding,MLL AF4-AF9 inh,T cruzi inh,Beta cell apopt,RanGTP-Imp inh,Ecoli rRNA inh,Ecoli rRNA inh OD600,Ecoli rRNA inh RFP,Calb FLC
O=C(Nc1ccon1)Nc1cc(Cl)ccc1Cl,4,i,-2.3,-6,6,-1.1,7,22,1.3,39
Cn1c(CN2CCN(CC#N)CC2)c(C#N)c2ccccc21,-2,nt,nt,0,-2,-2.6,nt,nt,nt,0
Cc1ccccc1NC(=O)c1nn(-c2ccc(F)c(F)c2)ccc1=O,4,i,-4.7,20,-6,-3.9,-3,-3,0.7,11
O=C1NC[C@H](Cc2ccccc2)N(CC2CCCCC2)C1=O,-31,i,-3.3,-20,-6,1.1,-5,-2,-3.7,8
O=S(=O)(CCn1cccc1)CCn1cccc1,3,nt,nt,3,-5,2.0,nt,nt,nt,-6
CC(=O)Nc1cccc(NC(=O)c2cccc(OCc3ccccc3)c2)c1,-6,i,0.6,3,8,1.9,-15,-44,16,1
Cc1ccc(NC(=O)N2CCCCCC2)cc1C,7,i,0.4,-3,2,6.3,nt,nt,nt,1
Cc1ccc2c(c1)c1nnc(SCC(=O)N3CCCc4ccccc43)nc1n2CC(=O)O,-2,i,-0.5,7,0,0.9,6,8,0.4,-4
CCOC(=O)CCc1c(C)c(C#N)c2nc3ccccc3n2c1-n1ccnc1,4,nt,nt,-7,-2,?,nt,nt,nt,1
CCOc1cc(/C=N/N=C2/NC(=O)C(CC(=O)O)S2)ccc1OCc1ccccc1Cl (centres undefined),98*,nt,nt,3,-5,-3.0,nt,nt,nt,-4
O=C(Cn1nnc2ccccc21)OCC(=O)c1ccc(Cl)cc1,-18,nt,-71,-33,-4,-1.5,16,2,-7.5,-4
CCCC(=O)Nc1ccccc1NC(=O)C1CCCCC1,-15,nt,nt,-14,-3,-1.0,nt,nt,nt,-5
O=C(CS(=O)(=O)c1ccc2ccccc2c1)Nc1ccccc1Cl,-11,i,-1.7,-21,-11,?,20,21,1.5,17
O=c1cc(CN2CCc3ccccc32)nc2sccn12,-12,nt,nt,-8,-6,0.2,nt,nt,nt,3
CCN(CC)CCCNC(=O)c1ccc2c(=O)n(Cc3ccc4c(c3)OCO4)c(=S)[nH]c2c1,95*,i,1.8,1,-2,-1.3,2,3,1.6,0
COc1cccc(NC(=O)CCNC(=O)C2CCN(S(=O)(=O)c3ccc(F)cc3)CC2)c1,-2,i,0.4,1,-2,-0.8,2,5,-0.6,5
Cc1cc(Nc2ccccc2)nc(N)n1,13,i,-0.4,-21,0,0.9,6,8,-5.1,-1
Cc1cccc(NC(=S)NC(=O)c2cc(-c3ccccc3)nc3ccccc23)c1,2,nt,nt,4,8,5.2,nt,nt,nt,-3
O=C1N2CN(C(c3ccccc3)c3ccccc3)CN=C2SC1(CO)CO,3,nt,nt,-1,nt,-2.5,nt,nt,nt,-6
CSc1ccccc1NC(=O)COC(=O)Cn1cc(C(F)(F)F)ccc1=O,-3,i,-1.9,nt,-3,nt,10,19,-3.1,nt
COC(=O)N/N=C/c1cn(CCOc2ccc(OC)cc2)c2ccccc12,-2,i,10,-8,-4,-2.3,-17,-15,0.6,-4
Cc1ccc(NC(=O)CCc2nc3ccccc3[nH]2)cc1C,0,i,-8.3,0,-2,1.2,-9,-14,-5.6,-6
Cc1cc(N2CCOCC2)n2nc(C(F)(F)F)c(-c3ccccc3)c2n1,5,i,0.0,8,-2,-1.7,6,7,-1.8,1
FC(F)(F)c1nnc2c(Sc3ccccc3)nc3ccc(Cl)cc3n12,30,nt,nt,?,96*,9.6,nt,nt,nt,7
Cc1ccc(-n2ccc(=O)c(C(=O)Nc3ccc(S(=O)(=O)Nc4nccs4)cc3)n2)cc1,1,i,1.9,-19,-6,-2.7,15,20,7.5,5
C/C(CC(=O)Nc1c(Cl)cccc1C(F)(F)F)=N\NC(=O)c1cnccn1,5,i,0.5,1,-4,-1.0,1,3,1.4,-8
CC(NC(=O)c1cccc(S(=O)(=O)N(C)C)c1)C1CC2CCC1C2 (centres undefined),-2,i,-5.6,3,nt,?,7,9,2.0,0
CCNC(=S)NNC(=O)c1cc(-c2cccnc2)nc2ccccc12,88*,i,0.1,-3,19,-0.3,-4,-4,0.3,1
COCCn1nnnc1C(c1ccc2ncccc2c1)N1CCc2ccccc21 (centres undefined),24,i,-8.4,5,-5,-1.7,-3,-7,0.8,23
O=[N+]([O-])c1ccc(N/N=C/c2sc(N3CCOCC3)nc2-c2ccccc2)c(S(=O)(=O)Nc2ccc(Cl)cc2)c1,nt,i,3.5,84*,nt,-26,-6,8,1.5,-4
Cc1cccc(C)c1NC(=O)NC1(C(=O)NCCN2CCOCC2)CCCCC1,-6,i,-2.0,-2,-10,-2.9,7,19,-20,4
COCCn1c(=O)[nH]c2cc(C(=O)NCCN3CCN(c4ccc(OC)cc4)CC3)ccc2c1=O,32,nt,nt,-9,0,-2.0,nt,nt,nt,2
O=C(O)C1CC=CCC1C(=O)NCCCCc1ccccc1 (centres undefined),-10,i,-0.4,-1,-2,6.7,7,1,0.0,-33
COc1ccc(N2C(=O)/C(=C\c3ccco3)N=C2SCC(=O)NC(C)C)cc1Cl,5,i,7.2,0,-9,-2.3,6,9,-0.3,27
CCCNS(=O)(=O)c1ccc(CCC(=O)N2CCCCC2)cc1,2,nt,nt,0,5,3.8,nt,nt,nt,3
CC(Sc1nn(-c2ccc(F)cc2)c(=S)s1)C(=O)c1c(N)n(C)c(=O)n(C)c1=O (centres undefined),nt,i,-5.1,27,0,5.3,7,10,-2.3,0
CCC(=O)O/N=C(\N)c1ccc(Oc2cc(C)c(Cl)c(C)c2)c([N+](=O)[O-])c1,-11,i,4.0,3,-1,-1.6,-1,10,4.4,-4
CCc1ccc(N2CC(C(=O)OCC(=O)Nc3ccccc3C)CC2=O)cc1 (centres undefined),3,i,-1.6,nt,-1,nt,8,8,0.1,nt
COc1ccc(-n2ccc(=O)c(C(=O)Nc3ccc(S(=O)(=O)Nc4nccs4)cc3)n2)cc1,1,i,-5.4,-8,-9,-0.6,8,13,1.2,-11
CCCCCC(=O)Nc1cc(S(=O)(=O)N2CCOCC2)ccc1Oc1ccc(OCC)cc1,-1,i,3.3,19,nt,1.0,5,9,-0.5,-5
CC(NC(=O)c1cc(COc2c(F)cccc2F)on1)c1cnn(-c2ccccc2)c1 (centres undefined),-10,i,-1.2,27,1,5.4,3,8,2.3,-14
O=C(CSc1nnnn1-c1cccc(C(=O)O)c1)NC(c1ccccc1)c1ccccc1,3,i,-3.1,-16,-1,-0.4,-26,-24,-4.8,-4
COc1ccccc1NC(=O)NNC(=O)c1ccc(-c2ccccc2)cc1,2,i,-8.6,-3,-3,-3.9,-19,-31,-1.6,1
Cc1ccc(CSc2nc3c(c(SCC(=O)O)n2)CCCC3)cc1,97*,nt,nt,-1,nt,2.2,nt,nt,nt,3
Cc1cc(C)n(-c2ccc3cccc(NS(C)(=O)=O)c3n2)n1,-4,nt,nt,60*,nt,-2.2,nt,nt,nt,1
N#Cc1nc(N2CCCC2)nc(N2CCCC2)n1,5,nt,nt,13,-8,-1.8,nt,nt,nt,-7
CCn1nc(NS(=O)(=O)c2ccc(NC(C)=O)cc2)c2cc3cccc(C)c3nc21,19,i,-6.5,11,nt,5.2,3,7,13,0
CCc1ccc(/C=N/NC(=O)c2ccc(OC3CCCC3)cc2)s1,-7,nt,nt,0,1,0.5,0,-1,1.6,-2
C=CCn1c(Br)nc2c1c(=O)[nH]c(=O)n2C,-9,nt,nt,-20,1,2.2,nt,nt,nt,-6
Cc1nn(Cc2ccccc2)c(Cl)c1C(=O)OC1CCOC1=O (centres undefined),25,nt,nt,-17,-2,4.5,nt,nt,nt,2

(further entries)
compound,ALR H2O2 inh,FGF22 binding,MLL AF4-AF9 inh,T cruzi inh,Beta cell apopt,RanGTP-Imp inh,Ecoli rRNA inh,Ecoli rRNA inh OD600,Ecoli rRNA inh RFP,Calb FLC
CSc1nnc(NC(=O)C23CC4CC(CC(C4)C2)C3)s1,3,i,-1.7,0,5,0.6,7,12,-0.8,7
CCn1c(SCC(=O)NCC2CCCO2)nc2cc(S(=O)(=O)N3CCCCC3)ccc21 (centres undefined),nt,nt,nt,11,-2,-0.2,nt,nt,nt,-3
COC(=O)C1=C(C)NC(=S)NC1/C=C/c1ccccc1 (centres undefined),-7,i,0.6,8,1,6.7,12,7,1.0,-24
Cc1sc(Cc2nc(O)cs2)nc1-c1ccccc1,97*,i,-1.5,-11,nt,8.3,2,-6,4.6,-8
CN(CC(=O)Nc1ccc(OC(F)(F)F)cc1)C(=O)Cc1c(Cl)cccc1Cl,-1,i,1.8,14,-2,-2.9,-10,-14,-2.9,7
Cc1cccc(N2CCN(C(=O)c3c(-c4ccccc4)noc3C)CC2)c1C,-2,i,1.4,0,5,-0.3,-10,-8,3.4,5
CC(C)N(Cc1cnn(C)c1)Cc1nc(COc2ccccc2)no1,-7,i,0.8,-3,0,-1.3,10,8,2.3,6
COc1cc(C(=O)OCC(=O)NCC2CCCO2)cc(OC)c1OC (centres undefined),3,i,-2.1,nt,-4,nt,-1,13,0.7,nt
C1=C(CCNCC2CCCCC2)CCCC1,-5,nt,nt,nt,5,1.9,nt,nt,nt,-2
CCNC(=O)c1ccc(=O)n(Cc2ccc(Cl)cc2Cl)c1,-10,i,-5.5,-14,-3,1.0,-2,-13,1.1,4
COc1ccc(OC)c(NC(=O)CC2SC(=Nc3ccc(F)cc3)N(CCC3=CCCCC3)C2=O)c1 (centres undefined),-23,nt,nt,37,27,0.4,nt,nt,nt,5
CCN(C(=O)COC(=O)CCc1ccccc1OC)c1c(N)n(Cc2ccccc2)c(=O)[nH]c1=O,1,i,-5.4,-10,-3,-0.6,1,10,-3.0,-11

Compound activity: PubChem BioAssay, Broad Institute

Some of the compounds tested; the hit share may differ from the screen's.
